VDR inh – Inhibitors of the vitamin D receptor (VDR): qHTS; Vitamin D3 receptor (Homo sapiens), P11473; VDR-SRC2-3 peptide fluorescence polarization, 2 h; Potency, µM, inactives show max response, negative = inhibition, usual class: inhibitors; 400,000 compounds, 0.93% hits; AID 504847, 2011; active means well fitted inhibition curve with a large enough effect; inconclusive means small, poorly fitted or top-dose-only effect, or another doubt; inactive means no such curve, though single readings can be large or run the other way; further: series mostly up to about 120 µM
Target sequence (P11473 whole entry, looked up): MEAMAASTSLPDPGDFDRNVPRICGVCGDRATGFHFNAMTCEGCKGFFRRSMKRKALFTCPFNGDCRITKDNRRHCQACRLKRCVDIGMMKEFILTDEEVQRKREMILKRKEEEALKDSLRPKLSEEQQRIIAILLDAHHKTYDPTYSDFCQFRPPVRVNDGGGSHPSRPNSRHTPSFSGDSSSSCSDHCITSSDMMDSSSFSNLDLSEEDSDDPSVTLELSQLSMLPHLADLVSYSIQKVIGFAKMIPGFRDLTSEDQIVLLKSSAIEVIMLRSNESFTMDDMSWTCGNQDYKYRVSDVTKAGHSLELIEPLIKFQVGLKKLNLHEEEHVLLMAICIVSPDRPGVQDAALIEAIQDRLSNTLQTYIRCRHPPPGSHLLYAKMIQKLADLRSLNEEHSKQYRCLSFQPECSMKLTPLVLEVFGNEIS
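Inhibition of the VDR/SRC2-3 peptide interaction is quantified by fluorescence polarization. Compounds (23 nl, pintool) incubate with the reagents for 2 hours at ambient room temperature.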
* marks the source's active call; other numbers are inactive results; & = joins results of further samples. On the % scale 0 is the no-effect control and ±100 the full control effect; potency means the concentration at half of the fitted maximal effect. An excerpt (hit frequency here may not be typical).

`Cc1ccc(N(CC(O)CN2CCOCC2)S(=O)(=O)c2ccc([N+](=O)[O-])cc2)cc1` (stereo not drawn) gave VDR inh -5%.
Screening CC(C)CNC(=S)N1CCC(c2nc(-c3ccc(F)cc3)no2)CC1 returned VDR inh -9%.
Cc1ccc(N(C(=O)c2snc(C(N)=O)c2N)C(C(=O)NCC2CCCO2)c2ccc3ncccc3c2)cc1 (stereo not drawn) was read as VDR inh 9%.
Screening O=S(=O)(c1ccc(Cl)cc1)N1CCC(n2cccc2)CC1 returned VDR inh 1%.
COc1ccc(N2CCN(CC(O)COc3ccc(C)c(C)c3)CC2)cc1 (stereo not drawn) was read as VDR inh 7%&11%.
Screening CCn1c(CNC(=O)c2ccc(OC)c(OC)c2)nnc1SCC(=O)Nc1ccccc1 returned VDR inh 2%.
For O=C(O)c1sc2cc(C(F)(F)F)cnc2c1-c1ccccc1 the results were VDR inh 6%.
Cc1ccc(NC(=O)c2c(C)nc3sc(C(=O)NC4CCCC4)c(N)c3c2-c2ccco2)c(C)c1 was read as VDR inh 1%.
Screening O=[N+]([O-])c1ccc(C(O)CN2CCN(C/C=C/c3ccccc3)CC2)cc1 (stereo not drawn) returned VDR inh -3%.
For Cc1ccc(S(=O)(=O)N2CCOCC2)cc1C(=O)OCC(=O)N1CCCC1=O the results were VDR inh 1%.
COc1ccc(C2CC(=O)C3=C(C2)Nc2ncnn2C3c2ccccc2)cc1 (stereo not drawn) was read as VDR inh 7%.
For COc1cccc(N2C(=O)C(CC(=O)Nc3ccc(Cl)cc3)N(Cc3ccc4c(c3)OCO4)C2=O)c1 (stereo not drawn) the results were VDR inh -12%.
For Cc1ccn2c(/C=N/OCc3ccc(F)cc3)c(-c3ccc(Cl)cc3)nc2c1 the results were VDR inh 4%.
For Cc1ccc2[nH]c(CSc3nnc(NC(=O)COc4ccccc4F)s3)cc(=O)c2c1 the results were VDR inh 11%.
`O=C(c1cccc([N+](=O)[O-])c1)N1CCc2ccccc21` gave VDR inh -5%.
Screening O=C1COc2ccc(-c3csc(=Nc4ccc(OC(F)F)cc4)n3CC3CCCO3)cc2N1 (stereo not drawn) returned VDR inh 9%.
`COC(=O)c1sc2ccc(C)cc2c1C(=O)OC` gave VDR inh -24%.
`CN(CC(=O)Nc1ccc(F)c(F)c1F)C(=O)c1ccc(=O)[nH]c1` gave VDR inh 14%.
Screening COc1cccc(NC(=S)N(Cc2ccc(Cl)cc2)Cc2ccc(C(=O)O)cc2)c1 returned VDR inh -29%.
O=C(Nc1ccccc1Cl)N1CCN(Cc2ccc3c(c2)OCO3)CC1 was read as VDR inh -12%.
`CC(=O)c1ccc(NC(=O)Nc2ccc3snnc3c2)cc1` gave VDR inh 8%.
`COC(=O)c1c(NC(=O)c2ccc(S(=O)(=O)N3CCCCC3C)cc2)sc2c1CCN(C(C)C)C2` (stereo not drawn) gave VDR inh 15%.
Screening c1ccc(-c2csc3ncnc(NCc4ccccn4)c23)cc1 returned VDR inh 0%.
`O=C(/C=C/c1ccccc1Cl)Nc1ccc(S(=O)(=O)Nc2ncccn2)cc1` gave VDR inh 17%.
Screening Cc1cc(C)cc(N(CC(=O)NC2CCCC2)S(=O)(=O)c2c(C)[nH]c(=O)[nH]c2=O)c1 returned VDR inh -14%.
`Cn1nc(C(=O)OCC(=O)NC2CCS(=O)(=O)C2)c2ccccc2c1=O` (stereo not drawn) gave VDR inh -11%.
`Cc1ccc(NS(=O)(=O)c2ccc3c(c2)CCN3C(=O)CCC(=O)O)cc1Cl` gave VDR inh 3%.
For COc1cccc(-n2cnnc2SC(C)C(=O)NC2CCCC2)c1 (stereo not drawn) the results were VDR inh -19%.
For Cc1cccc(N2CCN(C(=O)CSCc3c(C)noc3C)CC2)c1C the results were VDR inh -11%.
`COc1ccc(N=C2NC(=O)CS2)c([N+](=O)[O-])c1` gave VDR inh -2%.
COc1ccc2c(c1)N(C)/C(=C1/SC(=S)N(NC(C)=O)C1=O)S2 was read as VDR inh 5%.
Cc1ccc(C)c(NC(=O)Cn2cnc3c(oc4ccccc43)c2=O)c1 was read as VDR inh -11%&7%.
CCOc1ccc(N2C(=O)c3[nH]nc(-c4ccc(OC)cc4)c3C2c2cccs2)cc1 (stereo not drawn) was read as VDR inh inconclusive.
`CCN(c1ccc(OCC(=O)OCC(=O)Nc2ccc(F)c(F)c2F)cc1)S(=O)(=O)c1ccccc1` gave VDR inh -6%.
Cn1c(=O)cc(OCC(=O)NCCCN2CCN(Cc3ccccc3)CC2)c2ccccc21 was read as VDR inh -6%.
`Cc1ccc(C(=O)Nc2cccc(C(=O)NC3CCCC3)c2)cc1` gave VDR inh 2%.
`COC(=O)c1cc2oc(C)cc2n1Cc1ccc(Cl)cc1` gave VDR inh 5%.
`CC(=O)Nc1ccc(NC(=O)C(C)n2nc(C)c([N+](=O)[O-])c2C)cc1` (stereo not drawn) gave VDR inh 1%.
`COc1ccc(C)c2sc(=NC(=O)C(C)C)n(C)c12` gave VDR inh -6%.
COc1ccc(-c2nc(CS(=O)CC(=O)NCc3cccnc3)c(C)o2)cc1OC (stereo not drawn) was read as VDR inh inconclusive.
Screening CCc1ccc(-n2c3nc(=O)[nH]c(=O)c-3cc3c(C)nn(-c4ccccc4)c32)cc1 returned VDR inh -24%.
Screening COc1cccc(CC(=O)Nc2ccc3nc(N4CCC(C)CC4)cc(C)c3c2)c1 returned VDR inh -8%.
CCN1CCN(C(=O)CN(C)S(=O)(=O)c2ccc3ccccc3c2)CC1 was read as VDR inh 25%.
Screening COc1ccccc1C(CC(=O)c1ccccc1)CC(=O)c1ccccc1 returned VDR inh -10%.
Cc1oc(-c2cccc(C(F)(F)F)c2)nc1CN1CCC[C@H]1CO was read as VDR inh -3%.
CCOC(=O)C1=C(c2cccc(Oc3ccccc3)c2)NC(=S)NC1C (stereo not drawn) was read as VDR inh 4%.
For Cc1nc(CNC(=O)CC2C(=O)NCCN2Cc2ccoc2)nc2c1CCCC2 (stereo not drawn) the results were VDR inh 13%.
For CCN(CC)S(=O)(=O)c1ccc2oc(C(=O)O)c(C)c2c1 the results were VDR inh 5%.
O=C(CCCn1c(=O)c2ccccc2n(CC(=O)Nc2ccc(F)cc2F)c1=O)NCc1ccccc1Cl was read as VDR inh -9%.
For CCC(=O)OCC(=O)[C@@]1(OC(=O)CC)[C@@H](C)C[C@@H]2[C@H]3CCC4=CC(=O)C=C[C@]4(C)[C@@]3(F)[C@@H](O)C[C@@]21C the results were VDR inh 1%.
`CCOC(=O)c1cc(C(=O)c2cc(Cl)ccc2O)coc1=N` gave VDR inh 3%.
O=C(CCn1c(SCC(=O)c2ccccc2)nc2ccccc2c1=O)NCc1ccc(F)cc1 was read as VDR inh 4%.
`CCOC(=O)CSc1nc2ccc(N)cc2s1` gave VDR inh 2%.
`O=C(Cc1cccc(F)c1F)NC1CCCN(Cc2ccc(Cl)cc2)C1` (stereo not drawn) gave VDR inh -5%.
For COc1ccc(C(=O)CSc2cc(C)[nH]c(=O)n2)cc1 the results were VDR inh -4%.
O=C(Nc1ccon1)c1nc[nH]c1C(=O)NCc1ccccc1 was read as VDR inh -15%.
`N#Cc1ccccc1S(=O)(=O)N1CCC(C(=O)NCc2ccccc2CN2CCCC2)CC1` gave VDR inh 0%.
For CCOC(=O)CCc1cccc2c1CCC2=O the results were VDR inh -1%.
COc1cc(/C=N/NC(=O)C2c3ccccc3Oc3ccccc32)ccc1O was read as VDR inh -13%.
For CCOC(=O)c1cc2occc2n1CC(=O)N1CCCc2ccccc21 the results were VDR inh -10%.
O=C(Nc1ccc(Nc2ccccc2)cc1)c1ccc(Cl)cc1[N+](=O)[O-] was read as VDR inh -11%.
For CCN(CC)CCNC(=O)c1sc2nc(-c3ccccc3)cn2c1C the results were VDR inh -9%.
Screening O=C(O)CCC(=O)c1c[nH]c2ccccc12 returned VDR inh -14%.
CS(=O)(=O)N1CCN(c2ccc([N+](=O)[O-])c(NCc3ccc(Cl)cc3)c2)CC1 was read as VDR inh 12%.
`CCCc1cc(C(=O)N2CCCC(N3CCN(c4ccccc4C)CC3)C2)n(C)n1` (stereo not drawn) gave VDR inh -7%.
`COc1ccc(-c2onc(C)c2C)cc1S(=O)(=O)Nc1cccc(C#N)c1` gave VDR inh 8%.
Screening CC(=O)Nc1ccc(CNC(=O)C[N+]2(C)CCOCC2)cc1 returned VDR inh -12%.
For COC(=O)c1c(/N=C/NOCc2ccc(Cl)cc2)sc2c1CCN(c1ncc(C(F)(F)F)cc1Cl)C2 the results were VDR inh 9%.
For COc1ccc(OC)c(/C=C/C(=O)N(C)CC(=O)Nc2cc(C)ccc2C)c1 the results were VDR inh 7%.
CCC(C)Sc1nc2c(c(=O)[nH]c(=O)n2C)n1C (stereo not drawn) was read as VDR inh inconclusive.
Screening Cc1ccc(Cl)cc1NS(=O)(=O)c1ccc(-n2cccn2)cc1 returned VDR inh 3%.
For COc1ccc(OC)c(S(=O)(=O)NCc2nc3nc(C)cc(C)n3n2)c1 the results were VDR inh -10%.
For Cc1ccc(C)c(Cn2c(=O)n(CCCC(=O)NCc3ccco3)c(=O)c3sccc32)c1 the results were VDR inh 12%.
For Cc1ccc(NS(=O)(=O)c2cc(Br)cnc2N)cc1C the results were VDR inh 6%.
Screening O=C(O)c1cccc(-n2cccc2C=C2C(=O)c3ccccc3C2=O)c1 returned VDR inh 9%.
For O=C1CCCc2ccc3ccccc3c21 the results were VDR inh 6%.
For COc1cc(NC(=O)CCc2c(C)nc3nc(-c4cc(OC)cc(OC)c4)nn3c2C)cc(OC)c1 the results were VDR inh -2%.
Cc1ccc(-n2c(C)cc(C(=O)CN3C(=O)C(=O)N(C4CCCC4)C3=O)c2C)cc1 was read as VDR inh 4%.
CC1(C)CC(=O)C=C(c2cccc3c2sc2ccccc23)C1 was read as VDR inh -12%.
`O=C(Nc1cccc2cccnc12)c1ccc(Cl)cc1Cl` gave VDR inh -6%.
`Cc1ccc(-c2cc(C(=O)N3CCN(c4ccccc4)CC3)c3ccccc3n2)cc1C` gave VDR inh 9%.
`O=C(NCc1ccc2c(c1)OCO2)c1ccc(-n2cnnn2)cc1` gave VDR inh -3%.
For c1ccc([C@H]2CN3CCSC3=N2)cc1 the results were VDR inh 0%&-14%.
`CCOc1ccccc1NC(=O)N1CCC(C(=O)c2ccc(F)cc2)CC1` gave VDR inh 8%.
O=C(/C=C/c1ccccc1)Nc1cccnc1Cl was read as VDR inh 2%.
For CN(CCc1ccccn1)C(=O)CCC1CCCN(C(=O)c2cscn2)C1 (stereo not drawn) the results were VDR inh 4%.
`c1ccc(Cn2cc(-c3ccccc3)cn2)cc1` gave VDR inh 4%.
For Cc1nc2ccccc2c(=O)n1NC(=O)c1cc(Br)ccc1Cl the results were VDR inh 1%.
For CN1C(=O)C2(c3ccccc31)N(c1cccc(C(F)(F)F)c1)C(=O)CS2(=O)=O (stereo not drawn) the results were VDR inh 5%.
CC(=O)c1ccc(NC(=O)Oc2ccccc2)cc1 was read as VDR inh 15%.
COc1cc(OC)c(OC)cc1CN1CCN(S(=O)(=O)c2ccc(NC(C)=O)cc2)CC1 was read as VDR inh -15%.
Screening COc1ccc(C(=O)NNC(=O)c2ccc(C(C)(C)C)cc2)cc1 returned VDR inh 1%.
For CCOC(=O)C1CCN(C(=O)CN(c2ccc3c(c2)OCO3)S(C)(=O)=O)CC1 the results were VDR inh -6%.
Screening N=c1c(C(=O)NCC2CCCO2)cc2c(=O)n3ccccc3nc2n1C1CCCC1 (stereo not drawn) returned VDR inh -2%.
Screening CCC1CCCCN1Cc1nc2c(c(=O)n(C)c(=O)n2C)n1CC(C)C (stereo not drawn) returned VDR inh -8%.
For O=C(CNC(=O)C1CCCCC1)OCC(=O)c1cccc(Cl)c1 the results were VDR inh 1%&-12%.
`Cc1ccc(NC(=O)c2ccc(=O)[nH]c2)cc1S(=O)(=O)N1CCCCCC1` gave VDR inh -4%.

Among those listed so far, 15 contain fluorine:
Screening CC(C)CNC(=S)N1CCC(c2nc(-c3ccc(F)cc3)no2)CC1 returned VDR inh -9%.
For O=C(O)c1sc2cc(C(F)(F)F)cnc2c1-c1ccccc1 the results were VDR inh 6%.
For Cc1ccn2c(/C=N/OCc3ccc(F)cc3)c(-c3ccc(Cl)cc3)nc2c1 the results were VDR inh 4%.
For Cc1ccc2[nH]c(CSc3nnc(NC(=O)COc4ccccc4F)s3)cc(=O)c2c1 the results were VDR inh 11%.
Screening O=C1COc2ccc(-c3csc(=Nc4ccc(OC(F)F)cc4)n3CC3CCCO3)cc2N1 (stereo not drawn) returned VDR inh 9%.
`CN(CC(=O)Nc1ccc(F)c(F)c1F)C(=O)c1ccc(=O)[nH]c1` gave VDR inh 14%.
`CCN(c1ccc(OCC(=O)OCC(=O)Nc2ccc(F)c(F)c2F)cc1)S(=O)(=O)c1ccccc1` gave VDR inh -6%.
Cc1oc(-c2cccc(C(F)(F)F)c2)nc1CN1CCC[C@H]1CO was read as VDR inh -3%.
O=C(CCCn1c(=O)c2ccccc2n(CC(=O)Nc2ccc(F)cc2F)c1=O)NCc1ccccc1Cl was read as VDR inh -9%.
For CCC(=O)OCC(=O)[C@@]1(OC(=O)CC)[C@@H](C)C[C@@H]2[C@H]3CCC4=CC(=O)C=C[C@]4(C)[C@@]3(F)[C@@H](O)C[C@@]21C the results were VDR inh 1%.
O=C(CCn1c(SCC(=O)c2ccccc2)nc2ccccc2c1=O)NCc1ccc(F)cc1 was read as VDR inh 4%.
`O=C(Cc1cccc(F)c1F)NC1CCCN(Cc2ccc(Cl)cc2)C1` (stereo not drawn) gave VDR inh -5%.
For COC(=O)c1c(/N=C/NOCc2ccc(Cl)cc2)sc2c1CCN(c1ncc(C(F)(F)F)cc1Cl)C2 the results were VDR inh 9%.
`CCOc1ccccc1NC(=O)N1CCC(C(=O)c2ccc(F)cc2)CC1` gave VDR inh 8%.
For CN1C(=O)C2(c3ccccc31)N(c1cccc(C(F)(F)F)c1)C(=O)CS2(=O)=O (stereo not drawn) the results were VDR inh 5%.
